# WNV protease inh – inhibitors of West Nile virus NS2B-NS3 protease | 65,000 compounds, 0.18% hits | P06935 | z-score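 (tested at a level between 10 and 100 µM)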 | WNV NS2B-NS3 protease, fluorogenic substrate Ex360/Em465; stronger effect = lower value;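 active = z-score at -3 or under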;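 note: score is relative to mean and spread of the compound wells of a plate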
# Target sequence (P06935 1371-1501 limits assumed): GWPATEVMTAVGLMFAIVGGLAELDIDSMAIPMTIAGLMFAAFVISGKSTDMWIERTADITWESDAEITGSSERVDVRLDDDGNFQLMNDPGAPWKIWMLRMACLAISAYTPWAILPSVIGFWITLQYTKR
# Target sequence (P06935 1502-1679 limits assumed): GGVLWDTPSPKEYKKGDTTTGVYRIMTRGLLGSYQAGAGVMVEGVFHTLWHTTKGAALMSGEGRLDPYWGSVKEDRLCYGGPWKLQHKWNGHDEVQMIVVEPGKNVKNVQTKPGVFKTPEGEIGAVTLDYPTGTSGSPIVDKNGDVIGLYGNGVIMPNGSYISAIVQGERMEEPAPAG
# Hsc70 – small molecules displacing fluorescent ligand from Hsc70 – biochemical, fluorescence polarization, primary screen (AID 568) | 83,000 tested, under 10 active | displacement, % at 20 µM, or IC50 in µM where a hit was titrated | Hsc70 fluorescence polarization, probe displacement; higher % means a stronger effect; strong numbers were not always called active;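 active = displacement above 50% without optical interference and an IC50 on retest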;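 note: ATPase domain with a fluorescein-tagged ATP probe; 0% = vehicle and 100% = excess ADP; read after one hour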
# MT1-MMP reporter – inhibitors of MT1-MMP promoter transcription, cell-based, luciferase reporter, luminescence (AID 618) | MT1-MMP promoter luciferase reporter cells, luminescence | calls from a first round at 10 µM; hits with a dose series show EC50 in µM | 87,000 compounds, 0.62% hits;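 active = over half of the reporter light lost at 10 µM or EC50 under 50 µM; inactive = the rest and hits that failed the dose series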;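 note: actives suppress MT1-MMP promoter-driven transcription so potencies describe inhibitors; HT1080 fibrosarcoma cells; overnight exposure; toxic or luciferase-blocking compounds were not removed from the actives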
# An asterisk follows results filed as active; i = inactive; . = not tested or not shown.
SMILES,WNV protease inh,Hsc70,MT1-MMP reporter
Cc1c(CN(C)CCc2ccccc2)c(=O)n(-c2ccccc2)n1C,0.59,1.5%,i
O=C(c1ccc(CS(=O)(=O)c2ccccc2)o1)N1CCN(c2ncccn2)CC1,0.45,-1.8%,i
C=CCc1ccc(OCCOCCNCCOC)c(OC)c1,1.4,4.7%,i
CCS(=O)(=O)c1ccc2oc(Nc3ccc(C(C)C)cc3)nc2c1,.,-5.1%,i
CC1CC(C)CN(C(=O)c2cn(C)c3ccc(S(=O)(=O)N(C)C)cc3c2=O)C1 (stereo unspecified),-0.54,-3.8%,i
Brc1ccc(Cn2c(-c3cncs3)nc3ccccc32)cc1,.,4.4%,i
COC(=O)c1ccc(C2/C(=C(/O)c3ccc(OC(C)C)cc3)C(=O)C(=O)N2c2cc(C)on2)cc1 (stereo unspecified),-0.65,0.3%,i
Cn1c(C(=O)N2CCN(c3ccccc3F)CC2)cc2c(=O)n(C)c3ccccc3c21,0.71,-3.7%,i
COc1ccc2cc(C(=O)NCc3ccco3)c(=Nc3ccc(C(=O)O)cc3)oc2c1,0.1,6.3%,i
COc1ccc(C2/C(=C(/O)c3ccc4c(c3)CC(C)O4)C(=O)C(=O)N2CCN2CCOCC2)cc1 (stereo unspecified),-0.4,-1.1%,i
Cc1cc(OC(=O)c2ccco2)c2c(C)cc(=O)oc2c1,.,2.5%,i
COc1ccc(-c2nc3ccccc3[nH]2)cc1,.,1.7%,2.7µM*
CCCOc1cccc(C2C(C(=O)c3ccc(C)o3)=C(O)C(=O)N2CCCN(C)C)c1 (stereo unspecified),0.35,4.1%,i
O=C(O)CC1NC(=O)N(c2ccccc2)C1=O (stereo unspecified),0.26,-4.8%,i
Cn1c(=O)oc2cc(S(=O)(=O)N3CCCC(C(=O)Nc4ccc5c(c4)OCCO5)C3)ccc21 (stereo unspecified),-1.2,-1.9%,i
COc1ccc2c(C(=O)CN3CCN(c4ccccc4)CC3)c[nH]c2c1,.,-9.6%,i
Cc1ccc(SC(C)C(=O)Nc2ccncc2)cc1 (stereo unspecified),.,-0.7%,i
OC(CNC1CCCCC1)CN1CCN(CC(O)CNC2CCCCC2)CC1 (stereo unspecified),-0.62,1.8%,i
Cc1noc(/C=C/N(C)C)c1S(=O)(=O)N1CCC(C(=O)O)CC1,0.02,3.9%,i
Cc1ccc(OCC(O)Cn2c(=N)n(CCN3CCOCC3)c3ccccc32)cc1 (stereo unspecified),1.9,-2.7%,i
CCN(CC)C(=O)CSC(=Nc1ccccc1F)NC#N,0.41,1.8%,i
C=CCn1c(/N=C/c2ccc3c(c2)OCO3)nc2ccccc21,.,1.1%,i
COc1cc(/C=C/C(=O)CC(=O)/C=C/c2ccc(O)c(OC)c2)ccc1O,-2.2,-54%,i
CN(C(=O)c1ccc(NC(=O)c2cnccn2)cc1)C1CCCCC1,-0.25,2.6%,i
CN(Cc1ccccc1)C(=O)CCNC(=O)Cn1cnc2ccccc2c1=O,0.11,-2.3%,i
# Next results.
SMILES,WNV protease inh,Hsc70,MT1-MMP reporter
COc1ccc(C)cc1NC(=O)CN(c1ccc(F)cc1)S(C)(=O)=O,-1.1,97%,i
CCCCCCCCSc1nnc(-c2ccc(OC)cc2)o1,.,1.6%,i
COc1ccc(-n2nnnc2SCC(=O)N2CCCC2)cc1OC,-0.92,-8.9%,i
Cc1oc(-c2ccc(Cl)cc2)nc1CN1CCC(C(=O)NCc2cccs2)CC1,.,-1.8%,i
Cc1ccc(S(=O)(=O)N2CCSC2C(=O)O)cc1 (stereo unspecified),.,2.6%,i
C=CCn1c(=O)c2c(nc3n2CC(C)CN3c2cccc(OC)c2)n(C)c1=O (stereo unspecified),-0.64,3.8%,i
O=C(CS(=O)(=O)Cc1ccccc1)NCc1ccc2c(c1)OCO2,0.7,-3.0%,i
COc1ccc(-c2ccc(-c3noc(C4CCCCC4)n3)c(OC)n2)cc1,-0.54,0.1%,i
O=C(O)c1ccccc1C(=O)N1CCN(c2cccc(Cl)c2)CC1,0.06,3.9%,i
COc1ccc(C2C(C#N)=C(N)Oc3n[nH]c(C)c32)cc1Cn1cc([N+](=O)[O-])cn1 (stereo unspecified),.,3.4%,i
COCCCNC(=O)c1ccc2nc3ccccc3c(=O)n2c1,1.8,-5.0%,i
O=C(Nc1ccc2c(c1)OCO2)C1CCCN1C(=O)Nc1cccc(F)c1 (stereo unspecified),-0.66,1.1%,i
C=CCOc1ccc(/C(CC)=N/O)cc1OC,.,2.6%,i
CC(C)Cc1cc(C(=O)O)c2ccccc2n1,.,0.3%,i
Cc1ccc(NC(=O)c2ccc(S(=O)(=O)N3CCOCC3)cc2)nc1,.,-0.2%,i
COc1ccc(NC(=O)C2CCCN2C(=O)OCc2ccccc2)c(OC)c1 (stereo unspecified),-0.96,4.2%,i
CC1CCN(CC(O)COc2cccc(F)c2)CC1 (stereo unspecified),-0.69,1.5%,i
COc1cccc(C2NC(=O)NC(C)=C2C(=O)Nc2ccc(C)cc2)c1 (stereo unspecified),-0.02,2.9%,i
CCOCCCNC(=O)C(c1ccc(Cl)cc1)N1CCC2(CC1)OCCO2 (stereo unspecified),-1.1,5.1%,i
COc1ccc(CSc2nnc3n(C)c(=O)c4c5c(sc4n23)CCCC5)cc1,-0.53,-5.9%,i
CCCC1C(C(=O)OCC)=C(C)NC(C)=C1C(=O)OCC,1.4,-3.6%,i
CCC/C(O)=C1\C(=O)CCCC1=NCCCCCC(=O)O,.,1.5%,i
Cc1ccccc1Cc1c(C)nc2ncnn2c1C,0.19,-4.7%,i
O=C(Oc1ccc2c3c(c(=O)oc2c1)CCCC3)c1ccco1,1.4,-6.6%,i
CS(=O)(=O)c1nc(-c2ccco2)cc(C(F)(F)F)n1,2,1.9%,i

# 4 entries from above, reformatted:
COc1ccc(-n2nnnc2SCC(=O)N2CCCC2)cc1OC
  WNV protease inh = -0.92	Hsc70 = -8.9%	MT1-MMP reporter = i
Cc1oc(-c2ccc(Cl)cc2)nc1CN1CCC(C(=O)NCc2cccs2)CC1
  WNV protease inh = .	Hsc70 = -1.8%	MT1-MMP reporter = i
Cc1ccc(S(=O)(=O)N2CCSC2C(=O)O)cc1 (stereo unspecified)
  WNV protease inh = .	Hsc70 = 2.6%	MT1-MMP reporter = i
C=CCn1c(=O)c2c(nc3n2CC(C)CN3c2cccc(OC)c2)n(C)c1=O (stereo unspecified)
  WNV protease inh = -0.64	Hsc70 = 3.8%	MT1-MMP reporter = i

# Structural class: the entries above with an aryl thioether with sulfur outside any ring.
SMILES,WNV protease inh,Hsc70,MT1-MMP reporter
Cc1ccc(SC(C)C(=O)Nc2ccncc2)cc1 (stereo unspecified),.,-0.7%,i
CCCCCCCCSc1nnc(-c2ccc(OC)cc2)o1,.,1.6%,i
COc1ccc(-n2nnnc2SCC(=O)N2CCCC2)cc1OC,-0.92,-8.9%,i
COc1ccc(CSc2nnc3n(C)c(=O)c4c5c(sc4n23)CCCC5)cc1,-0.53,-5.9%,i

# The results go on.
SMILES,WNV protease inh,Hsc70,MT1-MMP reporter
O=C(CSc1ccc2nnc(-c3cccnc3)n2n1)NCc1ccc2c(c1)OCO2,0.06,-0.3%,i
C=C(C)CC1Nc2ccccc2NC1CC(=C)C (stereo unspecified),-1.5,-12%,i
COc1cc(NS(=O)(=O)c2ccc(NC(C)=O)cc2)nc(OC)n1,.,1.2%,i
N#CCCN1CCn2c1nc1ccccc12,-0.35,0.8%,i
Cc1nnc(NC(=O)CSc2nnc(Cc3cccn3C)n2-c2cccc(C(F)(F)F)c2)s1,0.15,3.2%,i
COC(=O)c1ccc(NC(=O)CCc2c(C)nc3ncnn3c2C)cc1,-1.1,1.5%,i
CC(C)OC(=O)c1cc2ccccc2[nH]1,.,-1.8%,i
N#CC1=C2SCN(c3ccccc3)CN2C(=O)CC1c1ccccc1Cl (stereo unspecified),-1.7,8.3%,i
Clc1ccc(CSc2nnc(-c3ccccn3)n2Cc2ccco2)c(Cl)c1,1.2,2.3%,i
Cc1ccc(S(=O)(=O)N(C)c2ccccc2)cc1,.,7.2%,i
COc1ccc(NC(=O)Nc2cc(C)ccc2OC)cc1,-0.02,-1.1%,i
CCOc1cccc(=O)c2c(C)n(C)c(C)c12,-0.17,1.2%,i
CCCn1c(=O)c2ccccc2n2c(SCC(=O)c3ccc(CC)cc3)nnc12,.,-8.0%,i
CCC(=O)Nc1ccc2nc(C)n(Cc3ccccc3Cl)c(=O)c2c1,.,-9.7%,i
CCc1cc2c(=O)c(-c3nc4ccccc4[nH]3)coc2cc1OC(=O)N1CCOCC1,0.05,7.0%,i
Fc1ccc(OCc2nn3cnnc3s2)cc1,-1.2,-12%,i
O=C(CC12CC3CC(CC(C3)C1)C2)N1CCOCC1,0.98,0.9%,i
O=C(NCc1ccco1)c1ccc(OCC2CCCO2)cc1 (stereo unspecified),-0.38,1.9%,i
O=C(Nc1ccc2oc(-c3cccnc3)nc2c1)c1cccnc1,-0.78,-0.7%,i
CCn1c(SCc2nc3ccccc3s2)nc2cc(S(=O)(=O)N3CCOCC3)ccc21,0.84,-11%,i
CCCN(CCC)CCNc1c(N2CCN(C(=O)OCC)CC2)c(=O)c1=O,1,-1.4%,i
COCCCNC(=O)CC(NS(=O)(=O)c1ccc(OC)cc1)c1ccc(OC)cc1 (stereo unspecified),0.95,0.6%,i
COc1ccc(NC(=O)CC(C(=O)O)N2CCCCC2)cc1 (stereo unspecified),.,2.4%,i
O=C(NOC(=O)c1ccccc1Cl)c1cccs1,.,1.2%,i
COc1cc(OC)cc(C(=O)NC2CC3CCC(C2)N3Cc2ccco2)c1 (stereo unspecified),-0.58,-1.1%,i
# More compounds:
SMILES,WNV protease inh,Hsc70,MT1-MMP reporter
COc1ccc(CN2CC(C(=O)NCCCOC(C)C)CC2=O)cc1 (stereo unspecified),-0.53,-0.9%,i
CCOC(=O)N1CCC(N2C(=O)c3ccc(C(=O)NCc4ccco4)cc3C2=O)CC1,-1,-1.2%,i
CC(=O)Nc1cnn(Cc2ccc(Br)cc2)c1,-1.2,-1.1%,i
CCOC(=O)CSc1nc2c(c(=O)[nH]c(=O)n2C)n1C/C=C(/C)Cl,-0.29,-9.2%,i
CCNc1nc(NCC)nc(OCCOC(=O)c2ccccc2)n1,0.56,2.8%,i
CCCCn1nnc(NC(=O)c2ccco2)n1,-0.97,2.7%,i
COc1ccc(OC)c(NC(=O)CSC2=C(C#N)C(c3ccco3)C3=C(CCCC3=O)N2)c1 (stereo unspecified),-1.1,-0.5%,i
C=CCN=C1SC(CC)C(=O)N1S(=O)(=O)c1ccc(C)cc1 (stereo unspecified),.,0.7%,i
CCOc1ccc(-c2nc(-c3ccc(OC)c(OC)c3)no2)cc1OCC,-2.7,-2.3%,i
O=C(CN(C(=O)Cn1nnc(-c2cccs2)n1)c1ccc2c(c1)OCCO2)NC1CCCCC1,1.4,4.3%,i
Nc1cc(N)nc(SCC(=O)c2ccccc2)n1,.,-2.2%,i
Cn1c(C(=O)NC2CCCCC2)cc2sccc21,1.5,7.7%,i
Cc1cccc(NC(=O)c2ccc3ccccc3n2)n1,-1.1,5.8%,i
Cc1ccccc1C(=O)Nc1ccc(Br)cn1,-0.61,-2.6%,i
Cc1ccc2c(c1)cc(CN(CCc1ccccc1)C(=O)N1CCOCC1)c1nnnn12,-1.4,0.5%,i
Cc1ccc(C)c(N2CCN(C(=O)c3ccc(CS(=O)(=O)c4ccccc4C)o3)CC2)c1,0.41,-6.0%,i
O=C(NCC(=O)N(CCN1CCOCC1)C(C(=O)NC1CCCC1)c1cccs1)c1ccco1 (stereo unspecified),0.35,-4.6%,i
CCCCOC(=O)CCc1c(C)[nH]c(=S)[nH]c1=O,.,-1.3%,i
O=C(NC1CCCC1)c1cnc2n(c1=O)CCS2,-0.64,4.2%,i
O=C(NCc1cccs1)c1ccc(N2CCCCC2)nc1,0.41,1.1%,i
O=C(CSc1ccc(Cl)cc1)Nn1cnnc1,1.1,0.7%,i
C=CCN(C(C)=O)C1CC(=O)N(c2ccc(OCCC)cc2)C1=O (stereo unspecified),.,-2.1%,i
COc1cc(C(=O)n2nc(C)cc2C)cc(OC)c1OC,-0.38,-1.0%,i
Cc1cc(C(F)F)n2ncc(C(=O)NCc3ccccc3)c2n1,0.23,-3.7%,i
Cn1c(SCC(=O)NC2CC2)nnc1-c1ccco1,-1.1,-4.1%,i
# (listing goes on)
SMILES,WNV protease inh,Hsc70,MT1-MMP reporter
COc1ccc(OC)c(C2NC(=O)NC(C)=C2C(=O)Nc2ccc(C)cc2)c1 (stereo unspecified),1.6,1.3%,i
Cc1noc(C)c1S(=O)(=O)N1CCCC(C(=O)NCCc2ccccc2)C1 (stereo unspecified),1.5,-4.3%,i
CCOC(=O)C(CCC#N)(CCC#N)C(=O)OCC,-1.2,-5.3%,i
Cc1ccc(S(=O)(=O)NC(=O)N2CCC(C)CC2)cc1,-1.3,3.5%,i
c1csc(C(c2nnnn2C2CCCC2)N2CCOCC2)c1 (stereo unspecified),-0.96,3.2%,i
COc1ccc(CCNc2ncnc3[nH]ncc23)cc1OC,1.2,-2.1%,i
COc1ccc(-n2c(SCC#N)nnc2-c2cccnc2)cc1,0.22,-1.1%,i
Cc1cccc(NC(=O)CSc2nnc(CSc3nc(C)cc(C)n3)n2Cc2ccco2)c1,-0.33,3.0%,i

# Assay outcomes deposited in PubChem BioAssay by several laboratories.
